GIV Gai3 FP – blocks GIV peptide binding to rat Galpha-i3; Galpha-i3/FITC-GIV peptide fluorescence polarization, 90 min; active compounds read low; scaled: aluminum fluoride 0%, vehicle 100%; percent of control (FP), % (no concentration beside the values); P08753; hit rate 0.42% among 210,000;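 active means replicate mean at 85% of control or lower, very high polarization wells dropped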;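 further: wells of about 15 µL received 100 nL stock; the first replicate is given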
Target sequence (P08753 whole entry, looked up): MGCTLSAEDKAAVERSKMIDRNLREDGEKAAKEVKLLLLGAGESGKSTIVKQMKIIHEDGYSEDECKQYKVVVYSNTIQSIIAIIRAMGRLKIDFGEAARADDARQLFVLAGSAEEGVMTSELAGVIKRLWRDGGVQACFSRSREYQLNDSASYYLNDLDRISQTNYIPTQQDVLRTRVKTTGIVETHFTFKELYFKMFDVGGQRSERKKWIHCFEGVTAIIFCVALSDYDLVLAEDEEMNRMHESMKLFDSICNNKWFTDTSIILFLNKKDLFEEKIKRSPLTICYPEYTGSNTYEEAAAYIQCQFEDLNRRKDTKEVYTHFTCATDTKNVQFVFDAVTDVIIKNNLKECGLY
Sa growth 42C – inhibitors of Staphylococcus aureus growth at 42 °C; S. aureus RN4220 growth, OD600, 20 h; active compounds read low; relative growth, % (test concentration not listed); hit rate 0.53% among 170,000;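 active means growth at 42 °C up to 50% and 20 or more points under that at 30 °C, or under 10% at both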;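 further: 300 nL library stock went into each well; scaled to the means of positive and negative controls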
HCMV NEC inh – inhibitors of HCMV UL50-UL53 nuclear egress complex interaction; inhibition, % (concentration not given with the values); AID 1918969; hit rate 0.15% among 190,000; HTRF UL50-UL53 interaction, normalized percent inhibition;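 active means both replicates at 50% or more, plus weaker picks with an unusually low signal ratio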;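 further: stock transfer was 100 nL into about 20 µL; 0% = negative control wells and 100% = wells with untagged competitor protein; inactives centre near -12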
Sa growth 42C second temp – also measured in Sa growth 42C; calls as there; relative growth, %; measured here: growth at 30 °C;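 optical density after 20 h as mean of two plates; 100% = untreated growth and lower means inhibition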
* marks the source's active call; other numbers are inactive results; . = not tested or not shown; & = joins results of further samples.

Screens by letter – A = GIV Gai3 FP; B = Sa growth 42C; C = Sa growth 42C second temp; D = HCMV NEC inh
COc1ccc(C(=O)NCC(c2ccco2)S(=O)(=O)c2cccs2)cc1OC (stereo unspecified)
  A: 105	B: 129	C: 96	D: .

CCCc1nn(C(=O)c2ccc(Cl)cc2)cc1C(=O)OCC
  A: 103	B: 85	C: 92	D: -6

CCOC(=O)c1c(S(=O)(=O)NCC(=O)Nc2ccc(Cl)c(C(F)(F)F)c2)c(C)n(C)c1C
  A: 104	B: 94	C: 100	D: .

O=C(CC1c2ccccc2CCN1S(=O)(=O)c1ccc(F)cc1)OC1CCOC1=O (stereo unspecified)
  A: .	B: 82	C: 83	D: -20

CCOc1ccc2c(c1)c(=O)c(C(=O)c1ccc(C)cc1)cn2Cc1ccccc1OC
  A: 103	B: 88	C: 87	D: -22

Cc1[nH]c2ccccc2c1SCC(=O)NN
  A: 105	B: 113	C: 80	D: -4

CCS(=O)(=O)N1CCc2cc(C(=O)CSc3nnc(NC4CC4)s3)ccc21
  A: .	B: 73	C: 84	D: -26

CC(C(=O)NCc1ccco1)n1c(-c2cscn2)nc2ccccc21 (stereo unspecified)
  A: .	B: 96	C: 84	D: -20

O=c1c2cccnc2nc(SCc2cc(=O)n3ccccc3n2)n1-c1ccccc1
  A: 94	B: .	C: .	D: -2

CC(=O)N1CCCc2cc(S(=O)(=O)N3CCCC(C(=O)N4CCN(c5ccccc5)CC4)C3)ccc21 (stereo unspecified)
  A: 99	B: 85	C: 33	D: .

CNS(=O)(=O)c1ccc2[nH]c(=O)[nH]c2c1
  A: 107	B: 90	C: 92	D: .

CC(C)COc1ccc(C(=O)N2CCN(CCc3ccccn3)CC2)cc1
  A: 98&99	B: 100	C: 83	D: -22&-10

Cc1[nH]c(=O)[nH]c(=O)c1S(=O)(=O)Nc1cccc(Cl)c1C
  A: 103	B: 101	C: 92	D: -18

Cc1ccc(-c2cc3nc(-c4ccccn4)cc(C(F)(F)F)n3n2)cc1
  A: 98	B: .	C: .	D: -20

O=C(NC1CC1)C1CCN(c2ncnc3c2sc2cccc(F)c23)CC1
  A: 101	B: 84	C: 87	D: -12

Fc1ccc(-c2ccc(SCc3nc(-c4ccccc4Cl)no3)nn2)cc1
  A: 103	B: .	C: .	D: -8

COC(=O)c1cc(NC(=O)CCS(=O)(=O)c2cc(Br)cc3c2N(C(=O)C2CC2)CC3)cc(C(=O)OC)c1
  A: 103	B: 103	C: 82	D: -5

O=C(COc1cc(C(F)(F)F)nc2ccccc12)Nc1ccc2c(c1)OCO2
  A: 104	B: 82	C: 82	D: -22

Cc1ccc(/C=C(/C#N)C(=O)Nc2ncc(Cc3cc(Cl)ccc3Cl)s2)o1
  A: 102	B: 104	C: 89	D: -4

CCCCN1CC(c2nc3ccccc3n2CCCCOc2c(C)cccc2C)CC1=O (stereo unspecified)
  A: 102	B: 95	C: 57	D: -3

CCOC(=O)c1c(C)n(C)c2c1cc(OC(=O)Cc1ccccc1)c1ccccc12
  A: 101	B: .	C: .	D: 0

CC1=Nc2cc(C(=O)NCCCN3CCOCC3)ccc2Sc2c(C)ccc(C)c21
  A: 99	B: 87	C: 85	D: .

CCc1ccc(OC(=O)CSc2nnc(-c3ccc4c(c3)OCO4)o2)cc1
  A: 97	B: 108	C: 86	D: -22

CCCc1nc2ccccc2n1CC(=O)N(COCC)c1c(C)cccc1CC
  A: 102	B: 116	C: 97	D: .

CC(C)=Cc1ccc(C#N)c(SCC(=O)c2cc3ccccc3oc2=O)n1
  A: 103	B: .	C: .	D: -30

Other entries
Screens by letter – A = GIV Gai3 FP; B = Sa growth 42C; C = Sa growth 42C second temp; D = HCMV NEC inh
CCc1cccc(C)c1NC(=O)CSc1nnc(CC)n2c1cc1occc12
  A: 108	B: 111	C: 89	D: .

CCOC(=O)/C=C1\SCC(=O)N1CCN1CCCc2cc(C)ccc21
  A: .	B: 100	C: 93	D: -25

Cc1ccc(-n2c(SCc3nc(-c4ccc(Cl)cc4)no3)nnc2-c2ccncc2)cc1
  A: 104	B: 95	C: 91	D: -1

O=C(COC(=O)c1ccc(Br)o1)c1ccccc1
  A: .	B: 95	C: 89	D: -24

c1ccc(-c2nc(CSc3nnc(-c4c[nH]c5ccccc45)o3)cs2)cc1
  A: .	B: 102	C: 90	D: -24

O=C(NC1CC(=O)N(c2ccc(Cl)cc2)C1)c1cccs1 (stereo unspecified)
  A: 92	B: 92	C: 92	D: .

CCOC(=O)c1sc(NC(=O)c2nn(-c3ccc(Cl)cc3)ccc2=O)c(C(=O)OCC)c1C
  A: 109	B: .	C: .	D: 16

O=C(OCCS(=O)(=O)c1ccc(C(F)(F)F)cn1)c1cccc(Cl)c1
  A: 100	B: 101	C: 96	D: -1

Cc1ccc2c(c1)c(N=NC(N)=S)c(O)n2CO
  A: 105	B: 87	C: 67	D: -99

CCOc1ccc(CCNC(=O)c2ccc3c(c2)nnn3CC)cc1OCC
  A: .	B: 87	C: 87	D: -23

CC1(C(=O)NC2CCCCC2)Cn2c(ccc2-c2ccccc2)C(=O)N1C1CCCCC1 (stereo unspecified)
  A: 100	B: .	C: .	D: -16

O=C(CN1C(=O)c2ccccc2C1=O)OC1CSCC1NC(=O)c1ccccc1 (stereo unspecified)
  A: 100	B: 94	C: 92	D: 0

CCn1cc(C(=O)OCC(=O)Nc2cccc(Cl)c2C)c(=O)c2ccc(C)nc21
  A: 103	B: 96	C: 92	D: -32

COc1ccc(OC)c(NC(=O)C2CCCN(c3nc4cccnc4s3)C2)c1 (stereo unspecified)
  A: 110	B: .	C: .	D: -15

COc1ccc(NC(=O)COc2cccc3c2CCNC3=O)c(OC)c1
  A: 102	B: 81	C: 84	D: -32

O=C(c1ccco1)N1CCN(c2ncnc3sc4c(c23)CCC4)CC1
  A: 97	B: 89	C: 40	D: -10

CCN(C(=O)NCc1noc2ccccc12)c1cc(C)ccc1C
  A: 98	B: 98	C: 94	D: .

C=CCn1c(=O)c2ccccc2n2c(SCC(=O)N(C)C)nnc12
  A: .	B: 95	C: 98	D: 4

O=C(Cc1n[nH]c(=O)c2ccccc12)N1CCc2ccccc21
  A: .	B: 100	C: 95	D: -4

O=C(Nc1ccc2c(c1)OCCO2)c1ccoc1
  A: 101	B: 79	C: 85	D: 26

O=C(CN1C(=O)C2CCCCC2C1=O)N1CCN(c2ccccc2)CC1 (stereo unspecified)
  A: 105	B: .	C: .	D: 0

O=C1CCCc2c1cnc1c2c(=O)[nH]c(=O)n1Cc1ccco1
  A: 109	B: .	C: .	D: -10

CCOc1ccc2nc(Cl)c(C3CC(c4ccc(OC)cc4)=NN3S(C)(=O)=O)cc2c1 (stereo unspecified)
  A: 131	B: 93	C: 108	D: 8

CN(C)CCCNC(=O)c1cc(-c2cccc(Br)c2)nc2ccccc12
  A: 104	B: .	C: .	D: -20

CC(C)(C)c1ccc(C(=O)NCC(c2cccs2)S(=O)(=O)c2ccccc2)cc1 (stereo unspecified)
  A: 96	B: 122	C: 95	D: .

Continuation:
Screens by letter – A = GIV Gai3 FP; B = Sa growth 42C; C = Sa growth 42C second temp; D = HCMV NEC inh
Cc1nn(CC(=O)NCCCN2CCN(Cc3ccccc3)CC2)c(=O)c2cc(-c3ccccc3)nn12
  A: 97	B: 105	C: 93	D: -2

N#CCCN1c2ccccc2Sc2ccccc21
  A: .	B: 75	C: 93	D: 8

COc1ccccc1-c1nn(CCC(=O)Nc2ccccc2)c2nc(C)cc(C)c12
  A: 108	B: 113	C: 87	D: 4

CCCn1c(SCc2ccc(C(C)(C)C)cc2)n[nH]c1=O
  A: .	B: 69	C: 86	D: -18

COc1ccc(C2CCCN2C(=O)c2ccc3c(c2)OCO3)cc1 (stereo unspecified)
  A: 110	B: .	C: .	D: 1

CC(=O)N1CCC(C(=O)Nc2ccc(N3CCOCC3)cc2)CC1
  A: 112	B: 100	C: 100	D: 0

Cc1cccc(-c2cc(C(=O)O)c3c(-c4ccc(F)cc4)[nH]nc3n2)c1
  A: 109	B: 95	C: 93	D: .

Cc1c(C(=O)Nc2cccc(Cl)c2)sc2ncnc(N3CCN(C)CC3)c12
  A: 107	B: .	C: .	D: -39

COc1ccc(Cn2c(SCc3ccc(C(=O)NCC4CCCO4)cc3)nc3cccnc32)cc1 (stereo unspecified)
  A: 105	B: .	C: .	D: -38

O=C(NN=C1CCCC1)C1COc2ccccc2O1 (stereo unspecified)
  A: .	B: 104	C: 90	D: -22

Cc1[nH]n(C)c(=O)c1C(=O)Nc1ccccc1
  A: 104	B: .	C: .	D: -2

Cc1ccc(-c2nc(CS(=O)(=O)CC(=O)NCc3ccccc3Cl)c(C)o2)cc1
  A: 103	B: 97	C: 85	D: -29

CCN(CC)C(=O)CSc1nnc2ccc3ccccc3n12
  A: 106	B: 105	C: 86	D: -33

COC(=O)c1cc(S(=O)(=O)N2CCCN(Cc3ccc(F)cc3)C2)c[nH]1
  A: 106	B: 103	C: 93	D: -11

COc1ccc2c3c1CCCN3CCC2
  A: .	B: 84	C: 91	D: -11

CCSc1sc(CC)cc1C(N)=O
  A: 104	B: 122	C: 99	D: 3

CCc1ccc(CN(Cc2ccco2)C(=O)COc2ccccc2Cl)cc1
  A: 107	B: 87	C: 45	D: -2

CCOC(=O)c1sc(NC(=O)Cn2nc(C)c([N+](=O)[O-])c2C)c(C(=O)OCC)c1C
  A: 101	B: .	C: .	D: 3

COc1ccc(CNC(=O)c2ccc3c(c2)N(Cc2ccccc2F)C(=O)c2ccccc2S3(=O)=O)cc1
  A: 102	B: 116	C: 103	D: -22

O=S(=O)(c1ccc(NCc2ccc3c(c2)OCO3)nn1)C1CCCCC1
  A: 98	B: .	C: .	D: -9

O=C(Nc1ccccc1)C1CCN(C(=O)c2ccco2)CC1
  A: 102	B: 111	C: 84	D: .

Cc1ccc(S(=O)(=O)N2CCN(C(=O)N(C)c3ccccc3)CC2)cc1
  A: 95	B: 94	C: 77	D: -31

O=C(CCN1C(=O)/C(=C/c2ccc3c(c2)OCO3)SC1=S)Nc1ccc(O)c(C(=O)O)c1
  A: 119	B: .	C: .	D: -70

CSCCC1NC(=O)N(Cc2c(Cl)cccc2Cl)C1=O (stereo unspecified)
  A: .	B: 101	C: 94	D: -1

CCc1nc2ccccc2c(C(=O)OCc2ccc(C#N)cc2)c1C
  A: .	B: 96	C: 89	D: 2

(more compounds)
Screens by letter – A = GIV Gai3 FP; B = Sa growth 42C; C = Sa growth 42C second temp; D = HCMV NEC inh
c1ccc(CCCN2CCN(C3CCCC3)CC2)cc1
  A: 105	B: 108	C: 94	D: -2

Cc1ccc(C(=O)O)cc1-n1cccc1
  A: .	B: 108	C: 79	D: -12

COC(=O)C1=NN(C(=O)c2ccccc2)C(O)(c2ccc(Cl)cc2)C1 (stereo unspecified)
  A: 108	B: .	C: .	D: 2

CC(=O)Nc1ccc(S(=O)(=O)N2CCCC(CO)C2)cc1 (stereo unspecified)
  A: 97	B: 101	C: 94	D: -12

CC1CC(=O)Nc2ccccc2N1C(=O)Cn1nnc(-c2cccs2)n1 (stereo unspecified)
  A: .	B: 107	C: 92	D: 8

O=C(O)CCNCc1c(Cl)cccc1Cl
  A: 106	B: 116	C: 75	D: .

O=c1c2ccccc2c(C=NCc2nc3ccccc3[nH]2)c(O)n1-c1ccccn1
  A: .	B: 88	C: 92	D: -60

COc1cc2c(cc1NC(=O)COc1ccc(Br)cc1C)oc1ccccc12
  A: 101	B: 108	C: 101	D: 12

O=C(O)Cn1cc2c(n1)CCCC2
  A: 96	B: 107	C: 94	D: .

CCOc1ccc(C(=O)N2CCN(c3ccccc3)CC2)cc1
  A: 105	B: 111	C: 77	D: -24

COC(=O)CCN(c1ccccc1)C(CNS(=O)(=O)c1ccccc1)c1ccccc1 (stereo unspecified)
  A: 113	B: 110	C: 84	D: 6

CCOc1cc(C2Nc3ccccc3NC3=C2C(=O)CC(c2ccc(OC)cc2)C3)ccc1OC(=O)C1CC1 (stereo unspecified)
  A: 104	B: .	C: .	D: -43

Grouped by structure, the entries above with fluorine
Screens by letter – A = GIV Gai3 FP; B = Sa growth 42C; C = Sa growth 42C second temp; D = HCMV NEC inh
CCOC(=O)c1c(S(=O)(=O)NCC(=O)Nc2ccc(Cl)c(C(F)(F)F)c2)c(C)n(C)c1C
  A: 104	B: 94	C: 100	D: .

O=C(CC1c2ccccc2CCN1S(=O)(=O)c1ccc(F)cc1)OC1CCOC1=O (stereo unspecified)
  A: .	B: 82	C: 83	D: -20

Cc1ccc(-c2cc3nc(-c4ccccn4)cc(C(F)(F)F)n3n2)cc1
  A: 98	B: .	C: .	D: -20

O=C(NC1CC1)C1CCN(c2ncnc3c2sc2cccc(F)c23)CC1
  A: 101	B: 84	C: 87	D: -12

Fc1ccc(-c2ccc(SCc3nc(-c4ccccc4Cl)no3)nn2)cc1
  A: 103	B: .	C: .	D: -8

O=C(COc1cc(C(F)(F)F)nc2ccccc12)Nc1ccc2c(c1)OCO2
  A: 104	B: 82	C: 82	D: -22

O=C(OCCS(=O)(=O)c1ccc(C(F)(F)F)cn1)c1cccc(Cl)c1
  A: 100	B: 101	C: 96	D: -1

Cc1cccc(-c2cc(C(=O)O)c3c(-c4ccc(F)cc4)[nH]nc3n2)c1
  A: 109	B: 95	C: 93	D: .

COC(=O)c1cc(S(=O)(=O)N2CCCN(Cc3ccc(F)cc3)C2)c[nH]1
  A: 106	B: 103	C: 93	D: -11

COc1ccc(CNC(=O)c2ccc3c(c2)N(Cc2ccccc2F)C(=O)c2ccccc2S3(=O)=O)cc1
  A: 102	B: 116	C: 103	D: -22

High-throughput results as filed in PubChem.
